# FPRL1 ligand – human FPRL1 ligand, with FPR counter-screen. inhibition, %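 (tested at 6.7 µM)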. FPRL1-expressing cells, fluorescent ligand binding inhibition, flow cytometry. actives 0.3% (n = 24,000). P25090;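 further: 0% = buffer alone and 100% = receptor blocker peptide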
# Target sequence (P25090 whole entry, looked up): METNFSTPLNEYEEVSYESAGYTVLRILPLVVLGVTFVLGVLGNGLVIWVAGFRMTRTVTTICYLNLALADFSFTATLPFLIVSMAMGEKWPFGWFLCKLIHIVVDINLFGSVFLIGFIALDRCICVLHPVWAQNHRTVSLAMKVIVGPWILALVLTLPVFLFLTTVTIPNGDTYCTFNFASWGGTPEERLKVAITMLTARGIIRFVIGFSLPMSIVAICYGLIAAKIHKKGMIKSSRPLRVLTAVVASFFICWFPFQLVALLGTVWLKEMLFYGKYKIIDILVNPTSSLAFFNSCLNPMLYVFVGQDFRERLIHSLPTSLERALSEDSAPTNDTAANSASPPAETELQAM
# FPR binder – human FPR ligand, with FPRL1 counter-screen; P21462; FPR-expressing cells, fluorescent ligand binding, flow cytometry; inhibition, %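 (tested at 6.7 µM)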; actives 0.74% (n = 24,000); AID 440;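 further: 0% = buffer wells and 100% = receptor blocker peptide wells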
# Target sequence (P21462 whole entry, looked up): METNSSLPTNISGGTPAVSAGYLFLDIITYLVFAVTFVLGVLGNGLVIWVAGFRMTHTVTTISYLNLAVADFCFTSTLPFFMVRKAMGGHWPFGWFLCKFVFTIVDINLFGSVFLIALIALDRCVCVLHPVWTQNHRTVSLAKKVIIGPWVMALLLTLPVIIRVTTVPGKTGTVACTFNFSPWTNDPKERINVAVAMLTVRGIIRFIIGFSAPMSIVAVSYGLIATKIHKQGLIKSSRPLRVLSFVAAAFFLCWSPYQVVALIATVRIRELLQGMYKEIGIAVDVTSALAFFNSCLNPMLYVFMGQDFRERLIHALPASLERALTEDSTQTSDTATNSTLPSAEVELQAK
# VCAM-1 up imaging – boosters of cytokine-driven VCAM-1 levels – imaging, high-content imaging, pooled HUVEC, TNFa stimulus (AID 457). calls only. actives 0.2% (n = 10,000). Pooled HUVEC, TNFa-induced VCAM-1 immunofluorescence imaging; hits of this screen are not shown here;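 active means a top-ranked rise in VCAM-1 staining upheld on image or statistical review; inactive means the rest, including candidates rejected on review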;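 further: compounds tested at 5 µM in the well; cells exposed to compound for 24 hours before fixing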
# VCAM-1 imaging – inhibitors of TNFa-induced VCAM-1 surface display, imaging, high-content imaging, pooled HUVEC, TNFa stimulus (AID 456). HUVEC TNFa-induced VCAM-1 surface expression, immunofluorescence imaging; numbers were filed only for top-ranked candidate wells. actives 0.2% (n = 10,000). inhibition, % at 5 µM, or IC50 in µM where a hit was titrated;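 active means top tenth filtered wells with inhibition above zero that passed visual or statistical confirmation; inactive means the rest, including hits rejected on review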;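 further: 0% = stimulated vehicle wells and 100% = unstimulated cells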
# VCAM-1 inhibition – inhibitors of TNFa-induced VCAM-1 surface display, cell-based, plate reader, pooled HUVEC, TNFa stimulus (AID 454); HUVEC TNFa-induced VCAM-1 surface immunofluorescence, plate reader; numbers were filed only for top-ranked candidate wells; inhibition, % at 5 µM; actives 0.2% (n = 10,000);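 active means compound among top-ranked inhibitors of TNF-induced VCAM-1 adhesion protein staining, with the hit upheld by image or statistical review; inactive means the rest, including hits rejected on review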;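 further: 0% = TNFa with vehicle and 100% = cells without TNFa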
# Active calls of the source: *; i = inactive; nt = no result given.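 How the source made its calls, unless noted: active means mean above 30%; inconclusive means self-fluorescent; inactive means the rest.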
SMILES,FPRL1 ligand,FPR binder,VCAM-1 up imaging,VCAM-1 imaging,VCAM-1 inhibition
Cc1cc(C)c2[nH]c(=O)c(C(c3nnnn3Cc3ccc4c(c3)OCO4)N3CCC(C)CC3)cc2c1 (centres undefined),2,-3,i,i,i
O=C(CC1CCCCC1)OCn1nnc2ccccc2c1=O,2,4,nt,nt,nt
COc1ccc2nc(NC(=O)C3CCCN(S(=O)(=O)c4cccs4)C3)sc2c1 (centres undefined),-2,2,nt,nt,nt
CC[C@H]1OC(=O)C[C@@H](O)[C@H](C)[C@@H](O[C@@H]2O[C@H](C)C[C@H](N(C)C)[C@H]2O)[C@@H](CC=O)C[C@@H](C)C(=O)C=C[C@]2(C)O[C@H]2[C@@H]1C,10,8,i,i,i
CCOc1ccccc1Oc1coc2cc(O)ccc2c1=O,3,-1,nt,nt,nt
Cn1nc(-c2ccc(Cl)cc2)c2cc(C(=O)N3CCCC3)sc21,-6,-6,nt,nt,nt
COc1ccc(-c2nnc(-c3ccc(N)cc3)o2)cc1,2,0,i,i,i
O=C(C1COc2ccccc2O1)N1CCn2c(nc3ccccc32)C1 (centres undefined),4,4,nt,nt,nt
COc1ccc(C(=O)N2CCN=C2SCc2cccnc2)cc1OC,-12,0,nt,nt,nt
Cc1ccc(N=C2NC(=O)CS2)c(C)c1,4,1,i,i,i
Cc1cccc(NC(=O)c2ccc(NS(=O)(=O)c3c(C)noc3C)cc2)c1,3,5,nt,nt,nt
COc1ccc2cc(C(=O)N3CCOCC3)sc(=O)c2c1OC,13,-1,nt,nt,nt
COC(=O)CCC(=O)c1oc2ccc(Cl)cc2c1NC(=O)CCCN1C(=O)c2ccccc2C1=O,4,-3,nt,nt,nt
O=C1CC(N2CCN(c3ccc(Cl)c(Cl)c3)CC2)C(=O)N1 (centres undefined),-3,-7,i,i,i
COCCN(CCOC)C(=O)c1c[nH]c2ccc(S(=O)(=O)N(C)c3ccc(F)cc3)cc2c1=O,9,-5,nt,nt,nt
COc1ccc2cc(CN(Cc3ccco3)C(c3nnnn3C3CCCCC3)C(C)C)c(=O)[nH]c2c1 (centres undefined),-6,11,i,i,i
Cc1ccc(CS(=O)(=O)CCC(=O)NCc2ccc3c(c2)OCO3)cc1,12,3,nt,nt,nt
CN(Cc1ccccc1)S(=O)(=O)c1ccc2[nH]cc(C(=O)NCC3CCCO3)c(=O)c2c1 (centres undefined),-6,-4,nt,nt,nt
CC(=O)Nc1ccc(S(=O)(=O)Nc2nc3ccccc3nc2N2CCCC2)cc1,5,5,i,i,i
Cc1cc(C(=O)O)c(=O)[nH]c1C,6,-7,nt,nt,nt
COc1ccccc1NC(=O)c1ccc(NS(=O)(=O)c2c(C)noc2C)cc1,-6,4,nt,nt,nt
Cc1cc(Nc2cccc(Cl)c2)n2ncnc2n1,1,-3,nt,nt,nt
CCCCNC(=O)CCCn1c(=S)[nH]c2cc3c(cc2c1=O)OCO3,1,4,nt,nt,nt
CCCCNC(=O)c1cc(-c2ccc(OC)c(OC)c2)on1,4,-4,nt,nt,nt
Cc1ccccc1COc1ccc(/C(O)=C2/C(=O)C(=O)N(CCCn3ccnc3)C2c2ccco2)cc1 (centres undefined),4,-1,nt,nt,nt
CCOC(=O)N1CCC(O)(c2cc(C)c(C)cc2C)CC1,-10,0,i,i,i
O=C(Nc1nccs1)c1ccc(Cl)c(S(=O)(=O)N2CCCCC2)c1,0,3,i,i,i
Cc1ccccc1C(=O)Nc1ccc2nc3n(c(=O)c2c1)CCC3,-3,3,nt,nt,nt
O=C(NC1CCCCC1)C(c1ccccc1)N1CCC2(CC1)OCCO2 (centres undefined),-5,6,nt,nt,nt
Nc1nnnn1/N=C/c1ccccn1,2,-4,i,i,i

# Grouped by structure: the compounds so far containing a Cl atom.
SMILES,FPRL1 ligand,FPR binder,VCAM-1 up imaging,VCAM-1 imaging,VCAM-1 inhibition
Cn1nc(-c2ccc(Cl)cc2)c2cc(C(=O)N3CCCC3)sc21,-6,-6,nt,nt,nt
COC(=O)CCC(=O)c1oc2ccc(Cl)cc2c1NC(=O)CCCN1C(=O)c2ccccc2C1=O,4,-3,nt,nt,nt
O=C1CC(N2CCN(c3ccc(Cl)c(Cl)c3)CC2)C(=O)N1 (centres undefined),-3,-7,i,i,i
Cc1cc(Nc2cccc(Cl)c2)n2ncnc2n1,1,-3,nt,nt,nt
O=C(Nc1nccs1)c1ccc(Cl)c(S(=O)(=O)N2CCCCC2)c1,0,3,i,i,i

# The listing continues:
SMILES,FPRL1 ligand,FPR binder,VCAM-1 up imaging,VCAM-1 imaging,VCAM-1 inhibition
O=C(Nc1ccccc1C(=O)N1CCOCC1)c1cccc(S(=O)(=O)N2CCCC2)c1,0,-1,i,i,i
Cc1nc(CCNC(=O)c2ccccc2)cs1,1,-2,i,i,i
O=C(CN1CCN(c2ccccn2)CC1)Nc1ccc(OCc2ccccc2)cc1,-2,-4,nt,nt,nt
Cc1cc(C)n(CC(=O)O)n1,0,1,i,i,i
CCOC(=O)Cn1c(=O)oc2cc(S(=O)(=O)N3CCc4ccccc43)ccc21,4,2,nt,nt,nt
CCc1nnc(NC(=O)c2ccc(COc3ccccc3)o2)s1,7,-3,i,i,i
O=C(NC1CC1)c1ccc(CSCc2cccc(F)c2)o1,-3,3,nt,nt,nt
Cc1cc(-c2nsc(=O)o2)c(S(C)(=O)=O)s1,-5,-2,nt,nt,nt
CCOC(=O)N1CCN(C(=O)CNS(=O)(=O)c2cccs2)CC1,-6,-2,nt,nt,nt
COc1cccc(CNC(=O)Cn2cc3c(n2)CCCC3)c1,30,40*,nt,nt,nt
COCCNC(=O)c1cc(-c2cccc(OC)c2)on1,-2,1,nt,nt,nt
C=CCn1c(N)c(C(=O)NCCC2=CCCCC2)sc1=S,-3,-4,i,i,i
Cn1cc(C(=O)N2CCN(c3ccccn3)CC2)c(=O)c2cc(S(=O)(=O)N3CCOCC3)ccc21,6,2,nt,nt,nt
O=C(NCC1CCCO1)c1ccc2c(c1)N(Cc1ccccc1)C(=O)CS2=O (centres undefined),3,-5,nt,nt,nt
CN(CC(=O)NCc1ccc(Cl)cc1)S(=O)(=O)c1cccc2nsnc12,-2,1,nt,nt,nt
COC(=O)CSC1=C(C#N)C(c2ccc(F)cc2)CC(=O)N1 (centres undefined),-4,-14,i,i,i
CC(=O)ON1C(C)(C)CC(OC(=O)c2ccccc2)CC1(C)C,3,1,nt,nt,nt
O=c1c2c(nc3c(-c4ccccc4)c[nH]n13)CCC2,0,2,nt,nt,nt
CCOC(=O)c1cn(CC)c2ccc(S(=O)(=O)N3CC(C)CC(C)C3)cc2c1=O (centres undefined),0,5,nt,nt,nt
Cc1ccc(N(CC(=O)Nc2ccc(F)c(Cl)c2)S(=O)(=O)c2c(C)noc2C)cc1,-12,2,nt,nt,nt

# Of the compounds above, these contain four or more nitrogen atoms.
SMILES,FPRL1 ligand,FPR binder,VCAM-1 up imaging,VCAM-1 imaging,VCAM-1 inhibition
Cc1cc(C)c2[nH]c(=O)c(C(c3nnnn3Cc3ccc4c(c3)OCO4)N3CCC(C)CC3)cc2c1 (centres undefined),2,-3,i,i,i
COc1ccc2cc(CN(Cc3ccco3)C(c3nnnn3C3CCCCC3)C(C)C)c(=O)[nH]c2c1 (centres undefined),-6,11,i,i,i
CC(=O)Nc1ccc(S(=O)(=O)Nc2nc3ccccc3nc2N2CCCC2)cc1,5,5,i,i,i
Cc1cc(Nc2cccc(Cl)c2)n2ncnc2n1,1,-3,nt,nt,nt
Nc1nnnn1/N=C/c1ccccn1,2,-4,i,i,i
O=C(CN1CCN(c2ccccn2)CC1)Nc1ccc(OCc2ccccc2)cc1,-2,-4,nt,nt,nt
Cn1cc(C(=O)N2CCN(c3ccccn3)CC2)c(=O)c2cc(S(=O)(=O)N3CCOCC3)ccc21,6,2,nt,nt,nt
CN(CC(=O)NCc1ccc(Cl)cc1)S(=O)(=O)c1cccc2nsnc12,-2,1,nt,nt,nt

# (list continues)
SMILES,FPRL1 ligand,FPR binder,VCAM-1 up imaging,VCAM-1 imaging,VCAM-1 inhibition
CCOC(=O)N1CCN(C(=O)C2CCN(Cc3nc(-c4ccccc4C)oc3C)CC2)CC1,1,-6,nt,nt,nt
CCOC(=O)N1CCC(N(CCCOC)C(=O)Nc2cccc(OC)c2)CC1,-6,-8,nt,nt,nt
O=C(Nn1cnnc1)C1Cc2ccccc2CN1S(=O)(=O)c1ccc(F)cc1 (centres undefined),1,4,i,i,i
CCN(C(=O)c1c(OC)cccc1OC)c1nnc(-c2cccnc2)s1,-2,-7,i,i,i
CN(C)c1nc2c(c(=O)n(C)c(=O)n2C)n1CC(=O)c1cccs1,-13,-16,nt,nt,nt
COc1ccc(S(=O)(=O)Nc2cccc(Cl)c2)cc1OC,4,0,nt,nt,nt
Cc1nc(NC(C)C(=O)O)c2nc(C)oc2n1 (centres undefined),0,-2,nt,nt,nt
O=C(Nn1c(=O)[nH]c2ccsc2c1=O)c1ccccc1,-3,-4,nt,nt,nt
COCCN1C(=O)C(CC(=O)Nc2ccc(C(=O)O)cc2)SC1=Nc1ccccc1 (centres undefined),-1,-4,nt,nt,nt
O=C(O)C1CCCCC1C(=O)Nc1cccc2ccccc12 (centres undefined),0,-13,nt,nt,nt
CCOC(=O)c1ccc(NCc2ccc3c(c2)OCO3)cc1,0,-9,nt,nt,nt
CCC(=O)N[C@@H]1CC(C(C)(C)NC(=O)CC)CC=C1C (some centres undefined),11,3,i,i,i
O=C(C1CCN(S(=O)(=O)c2cccc3cccnc23)CC1)N1CCN(C2CCCCC2)CC1,-1,-7,i,i,i
COC(=O)c1ccc(NC2(C#N)C(=O)Nc3ccccc32)cc1 (centres undefined),-4,9,i,i,i
Cc1onc(-c2ccccc2)c1C(=O)Nc1ccc(S(=O)(=O)N2CCCCC2)cc1,-4,-3,i,i,i
COC1(OC)N=C(N)C2(C#N)C(c3cccc(Oc4ccccc4)c3)C12C#N (centres undefined),2,4,nt,nt,nt
Cn1c(=N)c(S(=O)(=O)c2ccc(Cl)cc2)cc2c(=O)n3ccccc3nc21,-6,-4,i,i,i
COc1cc(NC(=O)c2nnn(Cc3ccc(SC)cc3)c2N)cc(OC)c1,-4,-6,nt,nt,nt
Cc1cc(C)n(C(=O)CNC(=O)C2COc3ccccc3O2)n1 (centres undefined),-1,7,i,i,i
COc1ccccc1C1/C(=C(\O)c2c(C)nc3c(C)cccn23)C(=O)C(=O)N1CCCN(C)C (centres undefined),-1,0,i,i,i

# Reformatted with each value named: part of the list above
Cc1cc(C)n(CC(=O)O)n1
  FPRL1 ligand: 0
  FPR binder: 1
  VCAM-1 up imaging: i
  VCAM-1 imaging: i
  VCAM-1 inhibition: i

O=C(CN1CCN(c2ccccn2)CC1)Nc1ccc(OCc2ccccc2)cc1
  FPRL1 ligand: -2
  FPR binder: -4
  VCAM-1 up imaging: nt
  VCAM-1 imaging: nt
  VCAM-1 inhibition: nt

CN(Cc1ccccc1)S(=O)(=O)c1ccc2[nH]cc(C(=O)NCC3CCCO3)c(=O)c2c1 (centres undefined)
  FPRL1 ligand: -6
  FPR binder: -4
  VCAM-1 up imaging: nt
  VCAM-1 imaging: nt
  VCAM-1 inhibition: nt

# Further entries.
SMILES,FPRL1 ligand,FPR binder,VCAM-1 up imaging,VCAM-1 imaging,VCAM-1 inhibition
Cc1cc(NC(=O)CSc2ccc3nnc(-c4cccc(F)c4)n3n2)no1,1,1,i,i,i
COc1ccc(CCNC(=O)CCn2cccc2)cc1OC,1,4,nt,nt,nt
COc1ccc(OC)c(Nc2ncnc3c2cnn3-c2cccc(C)c2)c1,-7,-1,nt,nt,nt
CN(c1ccccc1)S(=O)(=O)c1ccc(NC(=O)C2CCCCC2C(=O)O)cc1 (centres undefined),-1,-26,nt,nt,nt
Cc1[nH]c2ccc(F)cc2c(=O)c1SC(F)(F)C(F)C(F)(F)F (centres undefined),1,0,i,i,i

# An excerpt (hit frequency here may not be typical).
